VACV Venus inh: vaccinia inhibition (Venus reporter) | hit rate 0.46% among 330,000 | Vaccinia virus Venus reporter expression, fluorescence | Potency, µM (series often up to 36.5 µM), for the others: top-dose activity change, negative = inhibition, most hits filed as inhibitors; active means well fitted inhibition curve with a large enough effect; inconclusive means small, poorly fitted or top-dose-only effect; inactive means no such curve, though single readings can be large or run the other way; tested in A549 cells; note: nearly all actives have a fitted effect of over 30% in size; inactives centre near -10
Vaccinia mCherry: inhibitors of vaccinia virus infection (mCherry reporter signal); hit rate 0.63% among 310,000; Potency, µM (highest dose often 36.5 µM), for the others: at the highest dose activity change, negative = inhibition, usual class: inhibitors; Vaccinia virus mCherry reporter infection, fluorescence; about a quarter of the inactives have no number; active = well fitted inhibition curve with a large enough effect; inconclusive = small, poorly fitted or top-dose-only effect; inactive = no such curve, though single readings can be large or run the other way; tested in A549 cells; note: nearly all actives have a fitted effect of over 35% in size; inactives centre near -10
* = called active by the depositor; i = inactive; ? = inconclusive; nt = no result given; & = joins results of further samples; [ ] = remark or other dose. % is set by controls: 0 for no effect and ±100 for the full control effect; potency is the fitted concentration of half-maximal effect.

The first 5 entries (preview)
Results follow in this order: VACV Venus inh	Vaccinia mCherry
[1] COC(=O)CNC(=O)C1Nc2ccccc2C2C=CCC12 (configuration not stated)
    -2.1%	i
[2] CCOc1ccc(Br)cc1CN(CC)CC
    -15.6%	-26.5%
[3] COc1cc2c(cc1OC)C13CCN4C=C5CCOC6CC(=O)N2C1C6C5CC43 (configuration not stated)
    -4.8%	i
[4] CNC(=S)N1CCN(c2nc3ccccc3s2)CC1
    -10.5%	-11.5%
[5] O=C(C[C@@H]1C/C=C\C[C@@H](Cc2ccc(F)cc2)C(=O)OC[C@H]2CCCN2C1=O)N[C@H](CO)Cc1ccccc1
    -26.2%	-4.3%

This part in full (from the top)
Results follow in this order: VACV Venus inh	Vaccinia mCherry
[1] COC(=O)CNC(=O)C1Nc2ccccc2C2C=CCC12 (configuration not stated)
    -2.1%	i
[2] CCOc1ccc(Br)cc1CN(CC)CC
    -15.6%	-26.5%
[3] COc1cc2c(cc1OC)C13CCN4C=C5CCOC6CC(=O)N2C1C6C5CC43 (configuration not stated)
    -4.8%	i
[4] CNC(=S)N1CCN(c2nc3ccccc3s2)CC1
    -10.5%	-11.5%
[5] O=C(C[C@@H]1C/C=C\C[C@@H](Cc2ccc(F)cc2)C(=O)OC[C@H]2CCCN2C1=O)N[C@H](CO)Cc1ccccc1
    -26.2%	-4.3%
[6] COCCN(Cc1ccc(C)cc1)C(=O)[C@H]1O[C@@H](n2ccc(N)nc2=O)[C@H](O)[C@@H]1O
    10.5%	10.1%
[7] Cc1cc(=O)nc2c3ccccc3n(C(C)C(=O)Nc3c(F)c(F)c(F)c(F)c3F)n12 (configuration not stated)
    -14.4%	-9.3%
[8] C/C(=N\NC(=O)c1cc(Cl)ccc1O)c1ccc(Br)s1
    -7.0%	-13.8%
[9] CC(=O)Nc1ccc(S(=O)(=O)Oc2ccccc2N2CCCCC2)cc1
    -8.9%[7.34 µM]	-4.2%[7.34 µM]
[10] CCOC(=O)CSc1nc(N2CCOCC2)c2c(c1C#N)CC(C(C)C)OC2 (configuration not stated)
    -8.5%	-23.0%
[11] COc1nc(NC(=O)c2ccc(F)cc2)nc(OC)c1-c1ccccc1
    -6.0%	-3.2%
[12] CCOC(=O)Cc1c(C)nc2c(-c3ccccc3)c[nH]n2c1=O
    -14.9%	i
[13] COc1cc(C(C)=O)ccc1OCC(=O)NCC1(N2CCCCC2)CCCCC1
    -13.6%	i
[14] COCCN1C[C@@H](CO)O[C@@H](n2cnc3c(NCCN(C)C)ncnc32)C1
    1.4%	6.8%
[15] Nc1nc(CSc2nnnn2-c2ccc(F)c(Cl)c2)nc(N2CCOCC2)n1
    -8.6%	-9.9%
[16] CC1CCCN(C(=O)C2CCC(CNc3c(N4CCCCC4)c(=O)c3=O)CC2)C1 (configuration not stated)
    -10.2%	0.2%
[17] C/C(CC(=O)Nc1ccc2c(c1)OCCO2)=N\NC(=O)COc1ccccc1C
    -23.2%	i
[18] COc1cc(NC(=O)C2CCCCC2)c(OC)cc1NC(=O)c1ccccc1
    -2.8%	?
[19] COc1ccccc1C(=O)C1CCCN(Cc2cn[nH]c2C2CCCCC2)C1 (configuration not stated)
    -28.8%	-14.3%
[20] CC(C)Oc1cccc(-c2cc(C(=O)N3CCN(S(C)(=O)=O)CC3)c3ccccc3n2)c1
    -7.2%	-10.3%
[21] CC(=O)c1ccc(NC(=O)C2CCN(S(=O)(=O)c3cccc4cccnc34)CC2)cc1
    -9.9%	i
[22] Cc1cc(NC(=O)CSCC(=O)OCc2nnc(-c3ccccc3)o2)no1
    -11.7%	-5.3%
[23] CCCCNC(=O)C12CCC(C)(C(=O)C1Br)C2(C)C (configuration not stated)
    -12.0%	i
[24] CSc1ncccc1C(=O)NCCc1ccc(Cl)cc1
    -10.7%	-5.9%
[25] Cc1cc(=O)oc2c3c(cc(OCC(=O)NCc4ccccc4)c12)OC(C)(C)CC3
    4.9%	-9.3%
[26] CCOC(=O)C1=C(CN2CCN(C)CC2)NC(=O)NC1c1ccc(F)cc1 (configuration not stated)
    1.3%	-13.1%
[27] CN(CCC#N)C(=S)Nc1ccc(S(=O)(=O)N2CCOCC2)cc1
    -11.5%	i
[28] CC(=O)c1ccc(C(=O)N(C)C2CCCN(Cc3ccccc3F)C2)s1 (configuration not stated)
    -5.8%	?
[29] CSc1ccc(CNC(=O)C2CCCN(S(=O)(=O)N(C)c3ccc(F)cc3)C2)cc1 (configuration not stated)
    -14.1%	-13.8%
[30] Cc1nn(-c2cccc(Cl)c2)c(Cl)c1/C=N/NC(=O)c1cccs1
    -2.9%	i
[31] CCN(CC)CCCN1C(=O)CSC1c1ccc2c(c1)OCO2 (configuration not stated)
    2.1%	nt
[32] CCC(C)NC(=O)CSc1nc2n[nH]c(C)c2c(=N)n1-c1ccc(OC)cc1 (configuration not stated)
    -28.6%	nt
[33] CCn1nc(C(=O)OC(C(=O)c2c[nH]c3ccccc23)c2ccccc2)c2ccccc2c1=O (configuration not stated)
    -26.4%	-7.4%
[34] Cc1ccc(C)c(NC(=O)C(Sc2cccc[n+]2[O-])c2ccccc2)c1 (configuration not stated)
    -9.7%	i
[35] CN(C)C(=O)CSc1nnc([C@H](Cc2ccccc2)NC(=O)OC(C)(C)C)o1
    -11.6%	-21.8%
[36] O=C(NCc1ccc(F)cc1)c1ccc2c(c1)N(Cc1ccc(F)cc1Cl)C(=O)CS2
    -6.6%	2.4%
[37] Cc1nnc(SCC(=O)N2CCCC(C(=O)c3ccc(Cl)cc3)C2)o1 (configuration not stated)
    -3.8%	0.9%
[38] O=C(CCC(=O)N(CC(=O)NC1CCCC1)Cc1ccc(F)cc1)Nc1nccs1
    1.5%	14.1%
[39] CN1CC(=O)N(CC(=O)NCc2ccc3c(c2)OCO3)C1=O
    -8.7%	i
[40] CC(=O)c1c(C)n(CC(=O)NCc2ccco2)c2ccccc12
    -13.8%	2.9%
[41] CCOC(=O)C1CCCN(CC(=O)Nc2nccs2)C1 (configuration not stated)
    -23.0%	-4.7%
[42] COc1ccccc1NS(=O)(=O)c1ccc2oc(SC)nc2c1
    -22.2%	-21.7%
[43] O=C(c1cc(COc2ccc(F)cc2F)on1)N1CCSCC1
    -9.5%	-1.3%
[44] COc1ccc2c(c1)c1c(c(=O)n(CCc3ccccc3)c(=O)n1Cc1ccc(F)cc1)n2C
    0.0%	-0.1%
[45] CCN1CC=C2C(C#N)=C(N)C(C#N)(C#N)C(c3cc(Cl)ccc3Cl)C2C1 (configuration not stated)
    14.3%	i
[46] COc1cc(C2C(C#N)=C(N)N(N(C)C)C3=C2C(=O)CCC3)cc(OC)c1OC (configuration not stated)
    1.1%	-25.4%
[47] Cc1ccc(NC(=O)C/C(N)=N/O)cc1C
    -5.8%	i
[48] O=C(N/N=C/c1cccnc1)c1cc(O)c(O)c(O)c1
    -0.1%	-14.4%
[49] CSc1ccccc1C(=O)C1CCCN(C(=O)c2csnn2)C1 (configuration not stated)
    -5.2%	i
[50] CCc1cc(-c2n[nH]c(CCC(=O)O)c2-c2nc3ccccc3n2C)c(O)cc1O
    -7.4%	i
[51] O=C(Nc1ccc([N+](=O)[O-])cc1)c1cnn2c1NC(=C1CC1)C=C2C(F)F
    -10.2%	1.3%
[52] CCCOc1ccc(NC(=O)c2c(-c3ccccc3)noc2C)cc1
    -14.4%	3.4%
[53] COc1ccc(NC(=O)C/C(C)=N/NC(=O)C(=O)Nc2cccc(Cl)c2C)c(OC)c1
    -13.7%	-23.1%
[54] COC(=O)[C@H]1[C@@H](C)N(CCc2cc(OC)c(OC)c(OC)c2)C(=O)N[C@H]1c1ccccc1
    -19.4%	-12.2%
[55] CC(=O)N[C@@H](Cc1c[nH]c2ccccc12)C(=O)OCc1cc(C(F)(F)F)cc(C(F)(F)F)c1
    -5.4%	-14.8%
[56] Cn1c(=O)c(Oc2ccc(F)cc2)c(O)c2ccccc21
    11.7%	?
[57] COC(=O)C1=C(c2ccc3ccccc3c2)C[C@@H]2CC[C@H]1N2C(=O)NCC1CC1
    ?	?
[58] Cc1cc(C)n(CCN(C)Cc2cn[nH]c2-c2ccc(F)cc2F)n1
    -15.8%	-8.8%
[59] Oc1ccc(C[C@H]2CNC(=S)N2CC2CCCN2C[C@H](Cc2ccc(O)cc2)N2C[C@H](Cc3ccccc3)N(CC3CCCCC3)C2=S)cc1 (some centres not stated)
    ?	-29.6%
[60] CCN(CC(=O)NC1CC1)S(=O)(=O)c1ccc(C)cc1
    -20.6%	-18.1%

(more compounds)
Results follow in this order: VACV Venus inh	Vaccinia mCherry
[61] CC1=C(c2ccc(C)cc2)[N+](=O)C(C)(C)N1[O-]
    -18.4%	-12.7%
[62] Cc1ccc(C(=O)NCCNC(=O)c2cccnc2)cc1
    -11.1%	-18.8%
[63] CC(C)(C)OC(=O)N1CCC2(CC1)Oc1ccc(F)cc1C(=O)C21CC(c2cccnc2)=NO1 (configuration not stated)
    -18.7%	2.2%
[64] O=C1CC(c2ccc(F)cc2)C2=C(CCCC2=O)N1 (configuration not stated)
    -34.9%	nt
[65] O=C(COC(=O)c1ccc2[nH]c3c(c2c1)CCCC3)Nc1ccccc1
    0.3%	-11.3%
[66] CCC(/C=C/C(C)C1CCC2C3CC=C4CC(O)CC[C@@]4(C)C3CC[C@@]12C)C(C)C (some centres not stated)
    -4.5%	-9.4%
[67] O=[N+]([O-])c1cc(-c2nc(-c3ccccc3)no2)ccc1N1CCOCC1
    -0.5%	-5.7%
[68] O=C(CCc1ccc(S(=O)(=O)N2CCOCC2)cc1)Nc1ccc(F)cc1[N+](=O)[O-]
    -3.8%	i
[69] Cc1c(C(=O)NCc2ccccc2C(F)(F)F)sc(=O)n1Cc1cccc(C(F)(F)F)c1
    -6.4%	i
[70] NC(=O)C(F)(F)C12OC3C4C5CC(C6C5C3C61)C42 (configuration not stated)
    -0.8%	0.0%
[71] COC(=O)CN=C1OC(=O)N2C(=O)C3=C4[C@@H](C[C@H]5C(=O)N(c6ccccc6)C(=O)[C@H]5[C@H]4[C@@]12Cc1ccccc1)[C@H]1C(=O)N(c2ccccc2)C(=O)[C@H]1[C@H]3C
    0.3%	i
[72] CCOC(=O)COc1ccc2c(=O)c(-c3ccccc3)coc2c1
    -6.7%	i
[73] Cc1ccc2c(c1)c(CC(=O)Nc1ccc(F)cc1)c(C(=O)O)n2C
    -11.1%	-0.3%
[74] CC(=O)Nc1ccc(-c2ccnc3c2CC(C)(C(=O)NCCC(F)(F)F)O3)cc1 (configuration not stated)
    -6.3%	7.4%
[75] Nc1nc(SCC(=O)NC2CCCc3ccccc32)n[nH]1 (configuration not stated)
    -1.6%	i
[76] O=C(c1ccc(COc2ccccc2[N+](=O)[O-])o1)N1CCCCCC1
    -22.5%	nt
[77] Cc1nnc(NC(=O)c2ccccc2-c2ccccc2C(=O)O)s1
    -3.8%	-9.1%
[78] CCCCCN(C(=O)CCC(=O)OCC(=O)NC1CCC(C)CC1)c1c(N)n(CCCC)c(=O)[nH]c1=O (configuration not stated)
    -17.1%	-18.7%
[79] CCN(CC)CCCNC(=O)c1ccc2c(c1)NC(=O)C(CS(=O)(=O)Cc1cccc(Br)c1)N2 (configuration not stated)
    18.8%	9.0%
[80] CCc1nn2c(=O)c(S(=O)(=O)Nc3ccc(Cl)cc3)c(C)nc2s1
    -12.7%&-5.8%	-26.9%
[81] CCNc1nc(NC(C)C)nc(Oc2ccc(=O)n(C)n2)n1
    -4.6%	0.5%
[82] CN1CCC(N(C)C(=O)/C(C#N)=C/c2ccccc2)CC1
    -11.9%	-18.7%
[83] CC1=NS(=O)(=O)c2cc(Cl)ccc2N1
    -8.5%	-0.2%
[84] CCOC(=O)C1CCN(CC(=O)Nc2cc(S(=O)(=O)N3CCCCC3)ccc2Cl)CC1
    -21.1%	i
[85] CCOC(=O)[C@]12CCCC=C1N(Cc1ccc3c(c1)OCO3)C(=O)[C@H](CC(=O)N1CCSCC1)C2
    7.7%	15.9%
[86] O=c1cc(NCc2ccco2)c2ccccc2o1
    -15.5%	nt
[87] CN(C)/C=N/c1cnc(C(=O)c2ccc(Cl)cc2)n1C
    0.0%	-12.3%
[88] CN(C)C(=O)c1ccc(-n2cnc3ccccc3c2=O)cc1
    -3.9%	i
[89] CCOc1ccc(N(CC(=O)N2CCCC2)S(=O)(=O)c2ccc(Cl)cc2)cc1
    -4.3%	-13.9%
[90] CCOc1ccc(CCNC(=O)c2ccc3c(c2)sc2nc(-c4ccc(F)cc4)cn23)cc1OCC
    -20.8%	i
[91] Cc1c(C2CC(=O)N(c3ccccc3)C2=O)[nH]n(-c2ccccc2)c1=O (configuration not stated)
    -1.9%	nt
[92] CCC(C)c1ccc(NC(=O)c2[nH]c(C)c(C(C)=O)c2C)cc1 (configuration not stated)
    -4.4%	-9.4%
[93] CC(c1nc2ccccc2n1Cc1ccccc1)N1CCCCC1 (configuration not stated)
    0.0%	i
[94] CS(=O)(=O)N1CCCC(C(=O)N2CCN(c3cccc(Cl)c3)CC2)C1 (configuration not stated)
    -4.2%	?
[95] S=C1NCCOCCOCCOCCOCCNC(=S)N2CCOCCOCCN1CCOCC2
    -4.7%	i
[96] COc1ccc(CN2C(=O)c3cccc4cccc(c34)C2c2nc3ccccc3[nH]2)cc1 (configuration not stated)
    -6.4%	-13.5%

Single records (already shown).
Entry for COc1ccc(CN2C(=O)c3cccc4cccc(c34)C2c2nc3ccccc3[nH]2)cc1 (configuration not stated) : VACV Venus inh = -6.4%; Vaccinia mCherry = -13.5%
Entry for CC(c1nc2ccccc2n1Cc1ccccc1)N1CCCCC1 (configuration not stated) : VACV Venus inh = 0.0%; Vaccinia mCherry = i
Entry for CS(=O)(=O)N1CCCC(C(=O)N2CCN(c3cccc(Cl)c3)CC2)C1 (configuration not stated) : VACV Venus inh = -4.2%; Vaccinia mCherry = ?

From PubChem
